Assay outcomes as filed in PubChem.
VDR inh: blocks the human vitamin D receptor | VDR-SRC2-3 peptide fluorescence polarization, 2 h | actives 0.93% (n = 400,000) | AID 504847 | Potency, µM, inactives show max response, negative = inhibition, actives largely listed as inhibitors | P11473; active means well fitted inhibition curve with a large enough effect; inconclusive means small, poorly fitted or top-dose-only effect, or another doubt; inactive means no such curve, though single readings can be large or run the other way; further: series mostly up to about 120 µM
Target sequence (P11473 whole entry, looked up): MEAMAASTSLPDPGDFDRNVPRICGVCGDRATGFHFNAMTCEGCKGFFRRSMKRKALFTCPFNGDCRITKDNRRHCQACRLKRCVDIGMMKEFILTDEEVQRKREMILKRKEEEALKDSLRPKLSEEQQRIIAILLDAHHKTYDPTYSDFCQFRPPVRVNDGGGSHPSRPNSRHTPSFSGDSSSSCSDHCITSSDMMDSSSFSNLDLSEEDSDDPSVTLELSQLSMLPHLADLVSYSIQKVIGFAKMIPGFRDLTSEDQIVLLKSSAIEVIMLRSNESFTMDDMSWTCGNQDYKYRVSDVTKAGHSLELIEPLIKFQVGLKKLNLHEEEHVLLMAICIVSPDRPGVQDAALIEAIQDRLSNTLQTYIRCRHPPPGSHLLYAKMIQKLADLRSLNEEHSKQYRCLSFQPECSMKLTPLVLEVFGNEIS
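FP read-out; VDR + SRC2-3 coactivator peptide; 23 nl compound by pintool; 2 h RT incubation; reagents held at 4 deg C, protected from light.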
Active calls of the source: *; u = inconclusive; & = joins results of further samples. On the % scale 0 is the no-effect control and ±100 the full control effect; potency means the concentration at half of the fitted maximal effect. Only part of the results is shown (hit frequency here may not be typical).

SMILES	VDR inh
CCOc1ccc(N(C(=O)c2snc(C(N)=O)c2N)C(CC)C(=O)NC2CCCC2)cc1 (configuration not stated)	-2%
O=c1c2[nH]c3ccc(F)cc3c2ncn1Cc1ccncc1	-11%
COc1ccc(/C=C2\SC(=O)N(CCCC(=O)Nc3ccc(C(=O)O)cc3)C2=O)cc1OC	-12%
Cc1ccc(Oc2cc(NC(=O)CCCn3nc([N+](=O)[O-])c(Cl)c3C)cc([N+](=O)[O-])c2)cc1	-14%
CC1(C)S[C@@H]2[C@H](NC(=O)[C@H](C(=O)O)c3ccsc3)C(=O)N2[C@H]1C(=O)O	-1%
CC1(C)Cc2c(c(N3CCOCC3)nc3sc(C(N)=O)c(N)c23)CO1	-3%
O=C(c1ccc(S(=O)(=O)N2CCCCCC2)cc1)N1CCN(Cc2ccccc2)CC1	16%
CC(NCC(=O)Nc1cc(S(=O)(=O)N2CCCCCC2)ccc1Cl)c1ccccc1 (configuration not stated)	-16%
CN1C/C(=C/c2cccs2)C(=O)/C(=C\c2cccs2)C1	-3%
COc1cccc(C(=O)c2cn(CC(=O)NCc3ccco3)c3nc(C)ccc3c2=O)c1	-20%
Cc1cc(Br)c2[nH]cc(CCNC(=O)c3ccco3)c2c1	-12%
COc1ccc(C2(c3ccc(OC)cc3)NC(=O)N(CC(=O)Nc3ccc(C(=O)N(C)C)cc3)C2=O)cc1	8%
O=C(OCCN1C(=O)c2cccc3c(N4CCOCC4)ccc(c23)C1=O)c1cccc(Cl)c1	9%
COc1ccc(F)cc1C(=O)C1CCCN(Cc2c(C)n(C)n(-c3ccccc3)c2=O)C1 (configuration not stated)	-3%
Cc1cc(C)cc(N2CC(c3nnc(NC(=O)c4ccco4)s3)CC2=O)c1 (configuration not stated)	16%
Cc1ncc(C[n+]2csc(CCO)c2C)c(N)n1	1%&-7%&3%
COc1cccc(-c2cc(C(=O)N3CCN(c4ccc(F)cc4)CC3)no2)c1	9%&-9%
Cc1c(C(=O)Nc2ccc(F)cc2)sc2ncn(CC(=O)N3CCCCC3)c(=O)c12	5%
CC1(C)CC(CC(=O)Nc2ccc([N+](=O)[O-])cc2)C(=O)O1 (configuration not stated)	24%
CCOC(=O)c1ccc(N2C(=O)C(O)=C(C(C)=O)C2c2ccc(O)c(OC)c2)cc1 (configuration not stated)	-5%
O=C(CCCn1c(=O)oc2ccccc21)N1CCc2ccccc2C1	-14%
Cc1cc(C)nc(/N=C2\NC(=O)CC(C(=O)O)N2CCc2c[nH]c3ccccc23)n1 (configuration not stated)	-4%
Cc1cccc(C)c1NC(=O)CN(c1ccccn1)S(=O)(=O)c1ccc(F)cc1	-5%
CC(=O)c1cccc(N(C(=O)c2ccco2)C(C(=O)NC2CCCC2)c2ccc(N3CCOCC3)cc2)c1 (configuration not stated)	5%
O=C(CNC(=O)c1ccco1)OCc1ccc(C(=O)c2ccccc2)cc1	-12%
Carrying on.
SMILES	VDR inh
Cc1ccc(C(=O)N2CCN(c3ccccc3)CC2)cc1NC(=O)c1nsc2ccccc12	19%
Cc1ccc(-c2nc3ncccc3n2O)cc1	-10%
CC(C)N1CCN(Cc2cnc(N3CCCC3)s2)CC1CCO (configuration not stated)	-8%
Cc1ccccc1C(=O)c1cccn1CC(=O)NCc1ccc2c(c1)OCO2	9%
O=C1CC(NS(=O)(=O)c2cccs2)CN1c1ccc(F)cc1 (configuration not stated)	7%
CCc1ccc(N2C(=O)CSC23C(=O)N(Cc2cccc(OC)c2)c2ccccc23)cc1 (configuration not stated)	4%
Cc1cc(C)c(CN2CCN(C(=O)Cn3cnc(C(=O)Nc4ccc(C)c(C)c4)n3)CC2)c(C)c1	-5%
O=c1ccnc(Nc2ccc([N+](=O)[O-])cc2)[nH]1	-9%
COc1cccc(C2C=C(c3ccc(C)cc3)Nc3c(C(=O)Nc4ccc(F)cc4)cnn32)c1OC (configuration not stated)	2%
CC(C)CN(CC(C)C)C(=O)Nc1ccccc1F	4%
CCOC(=O)C1(CCSC)NC(c2ccco2)C2C(=O)N(C)C(=O)C21 (configuration not stated)	6%
O=C(COc1ccccc1)NCc1cccs1	3%
Cc1ccc(NCc2cccn2-c2nnc(N3CCC(C(=O)NCc4ccccc4C)CC3)s2)cc1	-12%
Cc1cc(C)n(-c2nnc(C)n2NS(=O)(=O)c2ccc(F)cc2)n1	0%
O=C(CCNC(=O)c1ccco1)Nc1nc2ccccc2s1	-2%
C=CCn1c(SCC(=O)NCc2ccc3c(c2)OCO3)nc2scc(-c3ccc(F)cc3)c2c1=O	6%
COc1ccc(NC(=S)NC23CC4CC(CC(C4)C2)C3)cc1OC	3%
COc1ccccc1NC(=O)CSc1nnc2c(n1)[nH]c1ccccc12	-2%
Cc1ccc(C(=O)NCC(=O)OCc2c(F)cccc2Cl)s1	-11%
Cc1noc(COc2ccccc2OCc2onc(C)c2Cl)c1Cl	-6%
Cc1cc(N2CCCC2)nc2ccc(NC(=S)NC(C)C)cc12	-13%
O=C(NCC(c1cccs1)N1CCOCC1)c1ccc(Cl)s1 (configuration not stated)	-15%
CCC(=O)Nc1cccc(-c2csc(-c3ccccc3)n2)c1	3%
O=C(Nc1ccc(N2CCN(C(=O)c3cccs3)CC2)cc1)c1cccnc1Cl	-1%
CCOC(=O)C[C@H]1c2cc(F)ccc2S(=O)(=O)N1C1CCCC1	-25%

Structures listed so far that contain fluorine:
SMILES	VDR inh
O=c1c2[nH]c3ccc(F)cc3c2ncn1Cc1ccncc1	-11%
COc1ccc(F)cc1C(=O)C1CCCN(Cc2c(C)n(C)n(-c3ccccc3)c2=O)C1 (configuration not stated)	-3%
COc1cccc(-c2cc(C(=O)N3CCN(c4ccc(F)cc4)CC3)no2)c1	9%&-9%
Cc1c(C(=O)Nc2ccc(F)cc2)sc2ncn(CC(=O)N3CCCCC3)c(=O)c12	5%
Cc1cccc(C)c1NC(=O)CN(c1ccccn1)S(=O)(=O)c1ccc(F)cc1	-5%
O=C1CC(NS(=O)(=O)c2cccs2)CN1c1ccc(F)cc1 (configuration not stated)	7%
COc1cccc(C2C=C(c3ccc(C)cc3)Nc3c(C(=O)Nc4ccc(F)cc4)cnn32)c1OC (configuration not stated)	2%
CC(C)CN(CC(C)C)C(=O)Nc1ccccc1F	4%
Cc1cc(C)n(-c2nnc(C)n2NS(=O)(=O)c2ccc(F)cc2)n1	0%
C=CCn1c(SCC(=O)NCc2ccc3c(c2)OCO3)nc2scc(-c3ccc(F)cc3)c2c1=O	6%
Cc1ccc(C(=O)NCC(=O)OCc2c(F)cccc2Cl)s1	-11%
CCOC(=O)C[C@H]1c2cc(F)ccc2S(=O)(=O)N1C1CCCC1	-25%

Remaining list, next part
SMILES	VDR inh
O=C(c1ccc(-n2cncn2)c([N+](=O)[O-])c1)N1CCN(c2cccc(Cl)c2)CC1	1%
CCOC(=O)c1sc(NC(=O)c2cccs2)cc1C	9%
COc1ccc(CCN(Cc2ccccn2)C(=S)Nc2ccccc2F)cc1OC	9%
Cc1cccc(C(=O)NCC(C)NC(=O)c2cccc(C)c2)c1 (configuration not stated)	18%
CCNC(=O)NC(=O)C(C)OC(=O)C(C)(C)Oc1ccc(Cl)cc1 (configuration not stated)	26%
Cc1ccccc1C(=O)Nc1cccc(NC(=O)c2ccc(C(C)(C)C)cc2)c1	50µM*
O=C(c1ccc2c(c1)N(Cc1ccccc1)CCS2)N1CCCCC1	-20%
CCOC(=O)c1ccc(N2C(=O)c3[nH]nc(-c4ccc(C)cc4)c3C2c2cccs2)cc1 (configuration not stated)	-11%
C=CCn1c(C)nnc1SCC(=O)Nc1oc(C)c2c(C)n[nH]c(=O)c12	-4%
COc1cccc(NC(=O)CC(c2ccc(OC(C)C)cc2)c2ccccc2OC)c1 (configuration not stated)	-5%
Cn1c(=O)cc(SCC(=O)N2CCN(c3ccc(F)cc3)CC2)c2ccc(Cl)cc21	-21%
Cc1ccc(CC(=O)N/N=C/c2ccc(OC(=O)c3ccc([N+](=O)[O-])cc3)cc2)cc1	-11%
COC1C=CO[C@@]2(C)Oc3c(C)c(O)c4c(O)c(c(C=NN5CCN(C)CC5)c(O)c4c3C2=O)NC(=O)/C(C)=C\C=CC(C)C(O)[C@@H](C)C(O)C(C)[C@H](OC(C)=O)C1C (some centres not stated)	u
O=C(CCc1ccc(Oc2cc([N+](=O)[O-])cc([N+](=O)[O-])c2)cc1)NC1CCCC1	4%
CCOc1ccc(N(CC)C(=O)c2cc3c(s2)-c2ccc(Cl)cc2SC3)cc1	-7%
CN(Cc1ccccc1)C1CCCN(C(=O)c2ccc(Cl)s2)C1 (configuration not stated)	2%
COc1cc(NC(=O)c2cccs2)c(OC)cc1NC(=O)CCC(=O)Nc1cccc2ncccc12	u
COc1ccc(NC(=S)NCc2cccs2)cc1OC	-22%
Cc1cc(NC(=O)CSc2nc(C3CCCCC3)nc3ccccc23)no1	-13%
COc1ccccc1C(CNC(=O)c1cccc(NS(=O)(=O)c2ccc(Br)cc2)c1)N(C)C (configuration not stated)	-16%
CCSCc1nnc(SCC(=O)Nc2ccc(OC)cc2)n1C	-6%
Cc1cc(C)cc(OCC(=O)NCCN2CCOCC2)c1	21%
COc1cc(/C=C\C(=O)Nc2cc(=O)n(C)c(=O)n2C)cc(OC)c1OC	-6%
CC(C)c1ccc(OCc2ccc(C(=O)O)o2)cc1	2%
CCCCOC(=O)n1ccc(C(=O)Nc2ccccc2OC)n1	-3%
More results
SMILES	VDR inh
COc1ccccc1C(=O)NNC(=O)C(=O)NCc1ccccc1	6%
CC(=O)Oc1ccc(C(=O)Nc2cccc(-c3nnc(-c4ccco4)o3)c2)cc1	18%
O=C(Nc1ccccc1)c1cn(CCBr)cn1	2%
CC1(C)C(c2ccccc2)=[N+]([O-])C2(CCCCC2=O)N1O (configuration not stated)	-4%
CCCCNC(=S)NCc1ccc2c(c1)cc(C)n2C	-8%
COc1ccc(Nc2c(-c3cc(Br)ccc3O)nc3ncccn23)cc1OC	-3%
Cc1ccc(OCC(=O)Nc2cccc(OCc3cc(=O)n4cccc(C)c4n3)c2)cc1C	-16%
Cc1cccc(-n2c(O)c(C=Nc3c(C)n(C)n(-c4ccccc4)c3=O)c3ccccc3c2=O)n1	1%&-5%
COc1cc2c(cc1OC)C(c1ccccc1)NCC2 (configuration not stated)	-4%
Cc1ccccc1CN1CCC(CNc2ncnc3onc(-c4ccc(F)cc4)c23)CC1	11%
CC(C)OC(=O)c1nn2c(C(F)(F)F)cc(-c3ccco3)nc2c1Cl	11%
c1ccc(SCc2nc(-c3ccncc3)n[nH]2)nc1	5%
Clc1ccc(-n2ncc3c(N4CCCC4)ncnc32)cc1	-15%
COC(=O)c1cc(-c2ccc(C)cc2)c2c(=O)n(C)c(=O)n(C)c2n1	2%
O=C(COC(=O)C1CC2CCCC(C1)C2=O)Nc1ccc(Cl)cn1 (configuration not stated)	-8%
Cc1ccccc1CSc1nc2c(c(=O)[nH]1)CCC2	-13%
COc1ccc(N2CCN(Cc3cc(=O)oc4ccc(Cl)cc34)CC2)cc1	0%
COCCN(CCOC)C(=O)C12CCC(C)(C(=O)C1)C2(C)C (configuration not stated)	16%
CC(C)(C)OC(=O)N[C@@H](CCCCNC(=O)OCc1ccccc1)c1nnc([C@H](CCCCNC(=O)OCc2ccccc2)NC(=O)OC(C)(C)C)o1	-17%
Cc1ccc(S(=O)(=O)NC(CC(C)C)C(=O)NCC(C)(C)N2CCOCC2)cc1 (configuration not stated)	-10%
CC(C)c1ccc(CNc2n[nH]c(-c3ccco3)n2)cc1	0%
O=C(Nc1nc2c(Cl)cccc2s1)c1ccc(S(=O)(=O)N2CCc3ccccc32)cc1	6%
CC(=O)OCC(=O)N1CCN(c2ccc([N+](=O)[O-])cc2)CC1	4%
COc1ccc(-c2n[nH]c(C(F)(F)F)c2-c2cc3ccccc3o2)c(O)c1	18%
CCN(CCCNC(=O)CSc1cc(=O)n(CC)c2ccccc12)c1cccc(C)c1	-1%

VDR inh: what is marked active above.
SMILES	VDR inh
Cc1ccccc1C(=O)Nc1cccc(NC(=O)c2ccc(C(C)(C)C)cc2)c1	50µM*

The list continues.
SMILES	VDR inh
CCCc1cc(=O)[nH]c(SCC)n1	14%
COc1ccc(-c2noc(N3CCCC(C(=O)Nc4ccc(C(C)=O)cc4)C3)n2)cc1 (configuration not stated)	-4%
O=C(NC(NC(=S)N1CCOCC1)C(Cl)(Cl)Cl)c1cccc2ccccc12 (configuration not stated)	-4%
CCOC(=O)c1ccc(/C=C2\c3ccccc3C(=O)N2c2ccccc2)cc1F	-21%
Cc1cc(F)ccc1NC(=O)Cn1c(C)csc1=O	-8%
O=C(NCc1ccc2c(c1)OCO2)c1cc(COc2c(F)cccc2F)on1	-4%
Cc1[nH]c2ccccc2c1C(=O)CCl	-9%
COC(=O)CSc1ncnc2scc(-c3ccccc3)c12	0%
CCOC(=O)CNc1nc(OCC#N)nc(N2CCOCC2)n1	-14%
COCCNC(=O)c1cc(-c2ccncc2)nc2ccc(S(=O)(=O)N3CCOCC3)cc12	-2%
O=C(CCn1c(=O)oc2ccccc21)Nc1cccc(Cl)c1	-9%
CCc1noc(C)c1C(=O)OC(C)C(=O)c1c(C)[nH]c2ccccc12 (configuration not stated)	-25%
O=C1OCc2nc3cc4c(cc3c(-c3ccc(F)cc3)c21)OCO4	u
O=C(COC(=O)CCc1c[nH]c2ccccc12)NCCc1ccccc1	-14%
CN1CCN(CCCNC(=O)c2ccc(CS(=O)(=O)c3ccc(Br)cc3)o2)CC1	15%
COc1ccc(C)cc1NC(=O)CCc1c(C)nn(-c2ccc(N3CCCCC3)nn2)c1C	-7%&-3%
O=C(COC(=O)Cc1c(Cl)cccc1Cl)Nc1ccccc1-c1ccccc1	1%
COc1cc2c(cc1OC)C(c1ccc(F)cc1)N(c1ccccc1)C(=O)C2 (configuration not stated)	5%
Cc1ccccc1CNC(=O)c1oc2c(c1C)-c1nn(Cc3ccc(Cl)cc3)cc1CC2	6%
O=C(OCC1CCCO1)c1ccc2c(c1)N(Cc1ccc(F)cc1)C(=O)c1ccccc1S2(=O)=O (configuration not stated)	-2%
Fc1ccc(-c2csc(-c3nc(-c4ccc(Br)s4)cs3)n2)cc1	3%
CCCC1c2ccc(C)n2CCN1C(=O)Nc1ccccc1Cl (configuration not stated)	9%
Cc1csc(NC(=O)CSc2nccn2C)n1	-7%
